Mtb MbtI inh: MbtI salicylate synthase inhibitors, primary screen, biochemical, fluorescence intensity | inhibition, %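 (about 17 µg/mL by stock and volumes)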 | purified MbtI enzyme, fluorescence intensity read-out | actives 0.89% (n = 100,000);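 active = above 50% in both replicates, above 80% if mildly self-fluorescent; inactive = the rest, strongly fluorescent compounds included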;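 note: 0% = mean of negative and 100% = mean of positive controls; one replicate is shown; some compounds called inactive have numbers as strong as hits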
Target sequence (P9WFX0 whole entry, looked up): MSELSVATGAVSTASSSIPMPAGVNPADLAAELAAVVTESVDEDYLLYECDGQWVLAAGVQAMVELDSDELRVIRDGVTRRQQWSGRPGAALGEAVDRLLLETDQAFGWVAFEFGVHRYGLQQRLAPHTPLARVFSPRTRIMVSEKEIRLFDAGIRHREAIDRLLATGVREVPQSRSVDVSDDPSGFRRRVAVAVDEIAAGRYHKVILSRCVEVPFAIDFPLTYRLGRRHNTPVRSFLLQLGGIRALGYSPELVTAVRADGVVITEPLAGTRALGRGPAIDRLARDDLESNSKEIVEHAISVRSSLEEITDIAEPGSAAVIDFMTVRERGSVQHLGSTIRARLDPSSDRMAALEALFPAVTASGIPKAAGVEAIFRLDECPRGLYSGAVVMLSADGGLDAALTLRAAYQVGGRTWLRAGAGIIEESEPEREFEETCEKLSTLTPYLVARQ
Polio RdRp inh: poliovirus RdRp elongation inhibitors, primary screen, biochemical, fluorescence polarization, total intensity; poliovirus polymerase elongation; stronger effect = lower value; Genome polyprotein (Poliovirus type 1 (strain Mahoney)), P03300; actives 0.66% (n = 150,000); % elongation, % (compound at 16.7 µg/mL); in the data active = % elongation below about 90%; note: some results filed as inactive read as strong as hits
Target sequence (P03300 1749-2209 limits assumed): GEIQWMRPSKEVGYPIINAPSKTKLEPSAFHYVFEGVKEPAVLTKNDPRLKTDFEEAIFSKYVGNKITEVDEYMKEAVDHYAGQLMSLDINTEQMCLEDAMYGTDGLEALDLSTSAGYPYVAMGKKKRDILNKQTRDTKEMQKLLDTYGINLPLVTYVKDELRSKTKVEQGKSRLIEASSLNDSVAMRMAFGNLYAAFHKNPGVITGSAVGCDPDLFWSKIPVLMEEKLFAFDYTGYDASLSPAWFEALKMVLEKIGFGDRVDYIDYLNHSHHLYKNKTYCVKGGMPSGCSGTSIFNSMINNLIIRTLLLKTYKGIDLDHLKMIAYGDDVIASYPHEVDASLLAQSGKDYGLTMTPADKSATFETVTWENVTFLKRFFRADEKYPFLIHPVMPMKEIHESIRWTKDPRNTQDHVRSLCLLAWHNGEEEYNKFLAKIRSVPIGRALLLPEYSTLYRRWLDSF
MenB inh: M. tuberculosis MenB inhibitors, primary screen, biochemical, absorbance; 1,4-dihydroxy-2-naphthoyl-CoA synthase (Mycobacterium tuberculosis (strain ATCC 25618 / …; MenB enzyme assay, absorbance read-out; some hits fall short of the stated cut; inhibition, %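 (about 12 µg/mL by stock and volumes)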; actives 0.43% (n = 100,000); AID 540299, 2011;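 active = mean of two replicates above 30%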;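 note: 0% = no compound and 100% = wells with inactive enzyme; the first replicate is given; strong numbers were not always called active; inactives centre near -10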
Polio RdRp inh intensity: second read-out of Polio RdRp inh, no call of its own (marks repeat the call); % elongation; measured here: total intensity read-out; formula for this scale not given here;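 total fluorescence in place of polarization; lower means less elongation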
Numbers without * were called inactive; i = inactive; / = not tested or not shown.

SMILES	Mtb MbtI inh	Polio RdRp inh	Polio RdRp inh intensity	MenB inh
CCOc1ccccc1CN1CCC(CNC(=O)c2cc(=O)[nH]c3ccc(S(=O)(=O)N4CCCCC4)cc23)CC1	-8.2	99.0	101.0	-5.0
O=C(CCC1CCCCC1)NCCCN1CCOCC1	/	108.0	104.0	-17.7
N#CCSc1ccccc1NC(=O)COc1ccc(-c2nnco2)cc1	-3.0	46.0	240.0	-12.7
O=C1CC(c2ccc(S(=O)(=O)NC3CC3)cc2)CN1 (stereo not given)	/	111.0	109.0	-9.8
CCCc1cc(=O)n2[nH]c(NCc3ccccc3)nc2n1	3.8	105.0	102.0	-10.5
CCCn1c(C)cc(/C=C(\C#N)C(=O)OCc2nc3ccccc3s2)c1C	-10.2	106.0	118.0	1.9
O=C(c1nc2ncccn2n1)N1CCN(c2ccccc2)CC1	-3.9	100.0	103.0	5.1
Cc1ccc(S(=O)(=O)NCc2ccc(C(=O)N3CCN(c4ccccc4)CC3)cc2)cc1	2.9	99.0	95.0	-5.4
O=C(CSc1n[nH]c(-c2ccc(Br)cc2)n1)N1CCCC1	14.8	106.0	111.0	11.4
Cc1cc(-c2ccc(F)cc2)nc2cc(C(=O)Nc3ccccc3C(F)(F)F)nn12	/	103.0	109.0	-1.6
COc1cc(Cl)ccc1NC(=S)N(CCCN1CCOCC1)C1CCN(C(C)=O)CC1	4.4	101.0	104.0	-18.4
O=C(O)c1cccc(-n2cccc2)c1	5.4	102.0	101.0	-14.9
O=C(Nc1ccccc1Cl)C1CCC1	3.4	102.0	106.0	2.6
Cc1ccccc1C(=O)NC(=S)N1CCC(C)CC1	-1.1	99.0	105.0	-12.2
CCn1c(C)cc2c(c1=O)C(C(C)C)C(C#N)=C(N)O2 (stereo not given)	-5.6	107.0	107.0	-12.1
O=C(NOC(=O)c1cccs1)c1ccccc1	5.3	101.0	100.0	-14.4
C/C(=C\C(=O)c1ccccc1)Nc1ccc(N2CCOCC2)cc1	0.8	101.0	100.0	-10.5
CCOC(=O)c1cncc(C#CCOC(=O)c2ccc(Cl)cn2)c1	1.6	103.0	102.0	-21.3
CC(=O)OC(C(=O)NC1CCCCC1)c1ccccc1 (stereo not given)	-7.2	101.0	104.0	-18.1
CCN(CC)S(=O)(=O)c1ccc(C(=O)NCCSc2c[nH]c3ccccc23)cc1	6.2	101.0	102.0	-15.2
C=CCNC(=S)Nn1c(C)nnc1-n1nc(C)cc1C	8.1	102.0	107.0	-26.5
CCC1CCCCN1C(=O)c1cnn(-c2ccc(C)cc2)c1-n1cccc1 (stereo not given)	-13.6	101.0	103.0	-30.1
Cc1ccc(/C=C/C(=O)OC(C)C(N)=O)o1 (stereo not given)	-4.0	103.0	102.0	-4.8
N#CCSc1nc(-c2ccccc2)c(-c2ccccc2)o1	-11.8	101.0	98.0	-28.0
CC1(C)CC(=O)c2sc(NC(=O)CCCc3ccccc3)nc2C1	/	103.0	106.0	-18.3

Part of the list above, with bars between the fields.
compound | Mtb MbtI inh | Polio RdRp inh | Polio RdRp inh intensity | MenB inh
C/C(=C\C(=O)c1ccccc1)Nc1ccc(N2CCOCC2)cc1 | 0.8 | 101.0 | 100.0 | -10.5
CCOC(=O)c1cncc(C#CCOC(=O)c2ccc(Cl)cn2)c1 | 1.6 | 103.0 | 102.0 | -21.3
CC(=O)OC(C(=O)NC1CCCCC1)c1ccccc1 (stereo not given) | -7.2 | 101.0 | 104.0 | -18.1

More records.
SMILES	Mtb MbtI inh	Polio RdRp inh	Polio RdRp inh intensity	MenB inh
O=C1C=C(SCC(=O)c2ccccc2)SC(c2ccc(Cl)cc2)C1 (stereo not given)	-14.7	105.0	111.0	-4.8
CC1CCCCN1C(=O)CSc1nnc(C2CCCCC2)o1 (stereo not given)	-7.0	103.0	99.0	-25.5
N#C/C(=C\c1ccc(C2=CCOc3ccccc32)s1)S(=O)(=O)c1ccccc1	-13.6	120.0	131.0	-11.1
CCOC(=O)N1CCN(CC(O)COc2c(OC)cccc2OC)CC1 (stereo not given)	1.8	101.0	106.0	-6.3
CC(Oc1ccccc1)C(=O)N1CCN(C(=O)C(C)Oc2ccccc2)CC1 (stereo not given)	-2.2	100.0	102.0	7.1
N#Cc1cccc(C#N)c1Sc1ccc(Cl)cc1	-6.2	106.0	110.0	0.3
COc1ccc(N2CCN(CNC(=O)c3ccccc3)CC2)cc1	-2.9	103.0	107.0	-18.4
CCC(C)C(NC(N)=O)C(=O)Nc1ccc(S(=O)(=O)Nc2ccc(OC)cc2)cc1 (stereo not given)	3.5	106.0	103.0	15.3
O=C1CCCC2=C1C(c1ccc(N3CCOCC3)cc1)c1c([nH]c(=O)[nH]c1=O)N2 (stereo not given)	-4.0	101.0	109.0	-2.2
Cc1cccc(N(C)C(=O)Cn2ncc3c(=O)oc4ccccc4c32)c1	1.6	101.0	104.0	-13.0
CC(C)(C)c1ccc(CC/C=N/O)cc1	-1.5	102.0	100.0	11.0
O=C1CCCC/C1=C/Nc1ccc2c(c1)OCO2	-7.1	101.0	99.0	-55.7
O=C1CC(c2ccccc2)n2nc(N3C(=O)CCC3=O)nc2N1 (stereo not given)	-13.8	102.0	99.0	-12.5
CCC(=O)N1N=C(c2ccc(OC)cc2)CC1c1ccccc1O (stereo not given)	-29.8	99.0	92.0	-29.8
Cc1cc(C(O)C(F)(F)F)c(C)n1CC(C)C (stereo not given)	-43.9	125.0	148.0	-32.5
CC12CCC(c3c(C(F)(F)F)nc(N)nc31)C2(C)C (stereo not given)	26.7	109.0	109.0	-31.5
O=C(CCC(=O)n1ncc2ccc(Cl)cc21)NC1CCCc2ccccc21 (stereo not given)	-0.6	105.0	107.0	-14.6
O=C(Nc1ncc(C(F)(F)F)cc1Cl)c1cc2c(s1)CCC2	-4.5	103.0	104.0	/
CCOC(=O)c1nc(NCc2cccnc2)c2ccccc2n1	-3.0	100.0	104.0	5.1
CC1=NN(C(=O)c2ccccc2)C(C)(O)C1(C)C (stereo not given)	-0.2	100.0	103.0	-9.0
CN(CC(=O)Nc1sccc1C#N)Cc1ccccc1	11.7	105.0	108.0	-6.1
CCCNCc1nnc(-c2ccco2)o1	i	105.0	110.0	-18.7
O=C(CC(C(=O)O)n1ccnc1)c1ccc(C2CCCCC2)cc1 (stereo not given)	/	95.0	99.0	8.8
COc1ccccc1-c1nnc(SC(C)c2nc3ccccc3c(=O)[nH]2)n1C (stereo not given)	-4.4	107.0	109.0	-13.2
c1ccc(CC2CCN(Cc3nnc(-c4ccc5c(c4)OCO5)o3)CC2)cc1	-8.7	103.0	101.0	-26.5
Carrying on:
SMILES	Mtb MbtI inh	Polio RdRp inh	Polio RdRp inh intensity	MenB inh
CC(C)CNC(=O)C1CC(=O)N(Nc2ccccc2)C1 (stereo not given)	-7.3	98.0	91.0	6.8
CCCc1ccc(C(=O)CC#N)cc1	-26.6	103.0	103.0	/
N#Cc1c(-c2ccccc2Cl)cc(C2CC2)nc1N	/	101.0	109.0	-21.1
O=C(C1CCN(S(=O)(=O)c2ccc3[nH]c4c(c3c2)CCCCC4)CC1)N1CCCC1	-25.3	/	/	6.2
COC(=O)c1ccc(OC)cc1OC(=O)COc1cccc(C)c1	7.9	/	/	-5.5
CC1(C)NC(=S)N(c2nc3ccccc3s2)N1	/	100.0	102.0	4.2
CCCn1nc(C(=O)N/N=C/c2ccc(O)cc2)c2ccccc2c1=O	-24.2	104.0	108.0	-19.7
N#C/C(=N\Nc1ccccc1)C(=O)C1CC1	97.0*	103.0	103.0	-190.3
CC1CN(C(=O)COc2ccccc2C#N)CC(C)O1 (stereo not given)	-6.4	102.0	106.0	/
Cc1ccc(NC(=O)c2cc(N(C)C)ccc2[P+](=O)O)cc1	-14.3	96.0	100.0	-17.5
COC(=O)CC1OC(=O)c2ccccc21 (stereo not given)	/	103.0	99.0	-0.7
CCCCCn1c(=O)c2ccccc2n2c(CN3C(=O)c4ccccc4C3=O)nnc12	-8.2	100.0	98.0	-29.7
O=C(COC(=O)c1cccs1)NC12CC3CC(CC(C3)C1)C2	-13.8	102.0	105.0	/
Cc1cc(C)c(NC(=S)NC(=O)c2ccccc2)c(C)c1	10.2	104.0	104.0	-40.0
CCCCCC(=O)c1ccc(O)cc1O	-1.4	102.0	105.0	-37.9
C/C(CCc1ccc2c(c1)OCO2)=N\N=C1/NC(=O)CC(C(=O)O)S1 (stereo not given)	0.3	100.0	103.0	7.9
CCN1CCCC1CNc1ncnc2onc(-c3ccc(F)cc3)c12 (stereo not given)	-15.1	104.0	103.0	3.3
CCOC(=O)c1cc2c(ccn2-c2ccc(F)cc2)n1CC(=O)N1C(C)CCCC1C (stereo not given)	87.8	106.0	102.0	-97.4
Cc1[nH]c(=S)[nH]c1Cc1ccccc1	96.5*	/	/	-14.4
NNC(=O)COc1ccc2oc3c(c2c1)CCCC3	-8.8	101.0	113.0	-11.6
O=C(Nc1ccc(N2CCOCC2)cc1)C1=NCCN1	-6.8	63.0*	68.0*	-18.1
COc1ccc(NCC(O)Cn2c3ccc(Cl)cc3c3cc(Cl)ccc32)c(OC)c1 (stereo not given)	1.4	102.0	94.0	-28.4
CCCN(CCC)S(=O)(=O)c1ccc(C(=O)NN)cc1	-14.4	103.0	110.0	-2.5
CC(C)(C)NC(N)=S	4.5	101.0	97.0	-17.8
O=S(=O)(NCC(c1cccnc1)N1CCN(Cc2ccccc2)CC1)c1ccccc1 (stereo not given)	-3.8	103.0	104.0	-5.4
Next entries.
SMILES	Mtb MbtI inh	Polio RdRp inh	Polio RdRp inh intensity	MenB inh
Cc1cc(C(=O)OC(C)C(=O)Nc2ccc(Cl)cn2)c(C)o1 (stereo not given)	-1.2	107.0	100.0	-2.9
C(=N\c1c(-c2ccccc2)nc2n1CCS2)/c1ccccc1	-1.7	99.0	102.0	1.3
Nn1c(=S)[nH]nc(Cc2ccco2)c1=O	/	73.0*	78.0*	-43.6
CCCCNC(=O)Nc1ccn(C)n1	-6.5	103.0	105.0	-14.4
NC(=O)CSc1ncnc2sc3c(c12)CCCC3	/	103.0	104.0	-11.2
N#CCCN1N=C(c2ccccc2)CC1=O	6.0	105.0	104.0	-47.5
O=C(CSc1nnc(-c2ccncc2)o1)N1c2ccccc2Sc2ccccc21	-11.8	102.0	108.0	4.6
CCOC(=O)c1c(N)c[nH]c1NCc1ccc(Cl)nc1	/	97.0	105.0	-2.5
CN1C(=O)/C(=C2\SC(N)=NC2=O)c2ccccc21	-4.9	103.0	104.0	-47.2
O=c1cc(CSc2nnc(Cn3nnc4ccccc43)o2)c2ccccc2[nH]1	12.6	99.0	101.0	16.3
CSc1nc(C)c2c(n1)CCCC2	-4.1	103.0	105.0	-11.2
CCc1ccc(C2C(C(=O)OC)C(=O)CC(C)(O)C2C(=O)OC)cc1 (stereo not given)	-3.6	105.0	102.0	-7.3
c1ccc(C2(Cn3ccc4ccccc43)OCCO2)cc1	-1.0	99.0	103.0	5.3
CC(C)(C)NC(=O)CS(=O)(=O)c1ccccc1	-9.4	100.0	103.0	-13.7
COc1ccc2oc(C(=O)OCC(=O)NC3(C#N)CCCC3)c(C)c2c1	35.7	104.0	106.0	-18.1
CCCc1cc(C(=O)NC2CC2)cs1	-11.1	100.0	103.0	-3.7
CCOc1ccccc1C(=O)NCCc1cn2ccc(C)cc2n1	-20.1	100.0	101.0	10.6
COc1ccc(OCC(=O)Nc2ccc3oc(-c4ccncc4)nc3c2)cc1	-2.5	101.0	102.0	-10.8
Brc1ccc(C2=CSC3=NCCN23)cc1	29.1	102.0	104.0	-13.0
CCOC1(C(F)(F)F)NC(=O)N(c2ccc(OC)cc2)C1=O (stereo not given)	-52.7	102.0	104.0	-20.5
CC(C)=C1N=C(c2ccccc2)OC1=O	2.1	108.0	99.0	11.9

Structures from the list above that contain an aryl thioether with sulfur outside any ring:
SMILES	Mtb MbtI inh	Polio RdRp inh	Polio RdRp inh intensity	MenB inh
N#CCSc1ccccc1NC(=O)COc1ccc(-c2nnco2)cc1	-3.0	46.0	240.0	-12.7
O=C(CSc1n[nH]c(-c2ccc(Br)cc2)n1)N1CCCC1	14.8	106.0	111.0	11.4
CCN(CC)S(=O)(=O)c1ccc(C(=O)NCCSc2c[nH]c3ccccc23)cc1	6.2	101.0	102.0	-15.2
N#CCSc1nc(-c2ccccc2)c(-c2ccccc2)o1	-11.8	101.0	98.0	-28.0
CC1CCCCN1C(=O)CSc1nnc(C2CCCCC2)o1 (stereo not given)	-7.0	103.0	99.0	-25.5
N#Cc1cccc(C#N)c1Sc1ccc(Cl)cc1	-6.2	106.0	110.0	0.3
COc1ccccc1-c1nnc(SC(C)c2nc3ccccc3c(=O)[nH]2)n1C (stereo not given)	-4.4	107.0	109.0	-13.2
NC(=O)CSc1ncnc2sc3c(c12)CCCC3	/	103.0	104.0	-11.2
O=C(CSc1nnc(-c2ccncc2)o1)N1c2ccccc2Sc2ccccc21	-11.8	102.0	108.0	4.6
O=c1cc(CSc2nnc(Cn3nnc4ccccc43)o2)c2ccccc2[nH]1	12.6	99.0	101.0	16.3
CSc1nc(C)c2c(n1)CCCC2	-4.1	103.0	105.0	-11.2
